RanGTP-Imp inh = disruptors of Ran-importin-beta complex formation – biochemical, FRET, CFP-Ran, YFP-importin-beta, homogeneous, primary screen | cell-free CFP-Ran/YFP-importin-beta FRET ratio | inhibition, % (no concentration beside the values) | 1.1% of 300,000 active | AID 2216;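 active = most replicates above 15%; inconclusive = exactly half above 15%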;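 note: 0% = DMSO wells and 100% = Ran loaded with GDP instead of GTP; wells of about 40 µL received 100 nL stock; the first replicate is given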
LANA-H2A inh = blocks KSHV LANA binding to histone H2A/H2B; cell-free LANA-H2A/H2B peptide, fluorescence polarization; 0.6% of 320,000 active; AID 2629; inhibition, % (concentration not given with the values); in the data active = inhibition mostly above about 10%, no sharp cut-off; inactive = mostly below about 6.7%;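 note: stock transfer was 7.5 nL into about 10 µL; 0% = median of vehicle wells and 100% = median of positive control wells; one replicate is shown; the record names a cut of 25% in any replicate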
Beta apoptosis = beta cell apoptosis inhibition; INS-1E cytokine-induced death, ATP luminescence, 48 h; percent of positive-control rescue, neutral wells zero; protection from apoptosis, % (test concentration not listed); 0.8% of 300,000 active; AID 435005;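 active = all replicates at 75% or more, or half of them and the mean; inconclusive = half reach 75% but not the mean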;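 note: 0% = cytokine-treated negative control wells and 100% = positive control rescue; higher means more ATP so stronger rescue from cytokine killing; wells of about 40 µL received 100 nL stock; the first replicate is given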
UCH37 DUB inh = inhibitors of human deubiquitinating enzyme UCH37 | purified proteasome/UCH37, Ub-AMC cleavage fluorescence | 0.33% of 330,000 active | inhibition, % (concentration not given with the values);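 active = mean of two replicates above 20%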;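 note: 0% = compound-free wells with enzyme and 100% = wells lacking proteasome; stock transfer was 100 nL into about 20 µL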
Target sequence (Q9Y5K5 whole entry, looked up): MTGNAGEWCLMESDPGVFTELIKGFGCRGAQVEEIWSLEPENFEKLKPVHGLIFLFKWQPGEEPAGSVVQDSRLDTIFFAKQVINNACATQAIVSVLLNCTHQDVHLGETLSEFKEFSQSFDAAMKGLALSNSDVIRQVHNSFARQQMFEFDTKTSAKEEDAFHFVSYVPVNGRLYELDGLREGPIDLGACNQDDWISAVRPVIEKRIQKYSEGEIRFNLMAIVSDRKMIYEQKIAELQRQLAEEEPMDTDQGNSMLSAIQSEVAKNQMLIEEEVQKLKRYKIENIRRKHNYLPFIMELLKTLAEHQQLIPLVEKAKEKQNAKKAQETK
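Material: Human UCH37 enzyme supplied as purified proteasome complex | Schedule: 30 min compound-proteasome preincubation then 25 min substrate reaction, room temperature | Detection: AMC fluorescence from Ub-AMC cleavage, excitation 355 nm, emission 460 nm | Benchmarks: Wells without proteasome as full block, compound-free enzyme plus substrate as uninhibited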
B2AR ag = activates human beta-2 adrenergic receptor causing internalization; P07550; Am2.2-beta2AR cells, FAP receptor internalization, flow cytometry; reference of the scale not given here; response, % (concentration not given with the values); 0.43% of 340,000 active; AID 504454;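 active = response above a set limit, near 3 SD of response in nonfluorescent compounds, cut at about 42% in these data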;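 note: stock transfer was 100 nL into about 11 µL; a reference agonist was the positive control; negative values mostly stem from fluorescent compounds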
Target sequence (P07550 whole entry, looked up): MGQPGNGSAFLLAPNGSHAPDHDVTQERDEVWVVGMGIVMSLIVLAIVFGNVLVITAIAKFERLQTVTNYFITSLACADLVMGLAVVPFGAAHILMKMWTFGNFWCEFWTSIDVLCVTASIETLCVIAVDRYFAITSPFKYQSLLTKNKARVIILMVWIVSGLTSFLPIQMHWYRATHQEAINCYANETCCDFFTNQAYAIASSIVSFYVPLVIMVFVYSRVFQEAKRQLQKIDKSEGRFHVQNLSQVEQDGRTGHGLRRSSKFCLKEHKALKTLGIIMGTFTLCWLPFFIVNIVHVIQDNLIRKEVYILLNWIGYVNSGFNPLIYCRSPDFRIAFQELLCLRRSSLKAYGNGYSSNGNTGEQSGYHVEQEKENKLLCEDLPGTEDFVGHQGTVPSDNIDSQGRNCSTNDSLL
T cruzi inh = blocks replication of Trypanosoma cruzi; T. cruzi beta-gal in NIH3T3, luminescence, 90 h; inhibition, % (test concentration not listed); 1.4% of 300,000 active;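 active = mean inhibition across valid replicates above about 55%, limit read from the data; inconclusive = mean below that limit but half or more replicates reach it; inactive = mean below it, under half of replicates reach it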;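 note: signal also drops with host cell toxicity which is not excluded here; 0% = plate median of DMSO wells and 100% = zero luminescence signal; higher percent means less beta-gal luminescence so fewer parasites; stock transfer was 50 nL into about 50 µL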
A1 inh = inhibitors of the anti-apoptotic protein A1, read as caspase activation; MEF A1-2A-BIM cells, Caspase-Glo 3/7 luminescence, 3 h; percent of clofoctol response, vehicle zero; caspase activation, % (test concentration not listed); 0.066% of 330,000 active; AID 2462;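 active = over half of replicate activation scores above 10%, or exactly half above 10 with the replicate mean above 10; inconclusive = replicate mean below 10 yet half the replicates above 10; inactive = over half of replicates below 10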;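 note: wells of about 30 µL received 50 nL stock; many hits fall short of the cut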
Calb FLC = C. albicans growth modulation with fluconazole; C. albicans CaCi-2 (fluconazole-resistant clinical isolate) + fluconazole, Alamar Blue growth, 48 h; 0.57% of 300,000 active; growth inhibition, % (concentration not given with the values); AID 1979;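 active = most replicates above 75%; inconclusive = exactly half above 75%; inactive = most below 75%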;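 note: all wells also contain fluconazole at 8 µg/ml as a sub-toxic cotreatment; 0% = median of DMSO wells and 100% = median of geldanamycin control wells; wells of about 8 µL received 7.5 nL stock; the first replicate is given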
Starred values were filed as active, the others as inactive; i = inactive; ? = inconclusive; · = no result given.

SMILES	RanGTP-Imp inh	LANA-H2A inh	Beta apoptosis	UCH37 DUB inh	B2AR ag	T cruzi inh	A1 inh	Calb FLC
O=C(COc1ccccc1)NC(NC(=S)Nc1ccccc1C(=O)O)C(Cl)(Cl)Cl (stereo not given)	6.2	1.6	-2	-0.5	6	3	-1.2	2
C=CCNC(=O)COC(=O)CCC(=O)c1cccs1	-0.6	0.5	0	2.0	0	0	-0.2	19
O=C(c1ccco1)N1CCN(C(=O)c2cccc3c2C(=O)N(Cc2cccnc2)C3)CC1	1.6	-6.9	-1	0.7	-17	-12	·	16
O=C(CC1C(=O)NCCN1Cc1ccc(F)c(F)c1)NCCn1cccn1 (stereo not given)	-3.9	3.6	-6	-1.9	-4	-2	-0.1	3
O=C(NCc1ccc(Cl)cc1)c1ncn[nH]1	2.2	3.3	-1	0.9	2	-9	-0.6	-9
Cc1cc2c(c(=O)n1CCN(C)C)C(c1ccc(Br)cc1)C(C#N)=C(N)O2 (stereo not given)	-0.7	-1.4	3	-4.5	-2	2	-0.3	7
N#Cc1nc(-c2ccc(F)cc2)oc1N1CCN(C(=O)c2ccco2)CC1	-2.5	2.8	-2	-45	9	-6	0.5	6
O=C(CNS(=O)(=O)c1cccc2nsnc12)NC1CCCCC1	-3.4	1.6	-3	5.0	-1	-7	0.6	18
COc1ccc(CCNC(=O)C(=O)NCC2OCCN2S(=O)(=O)c2cc(F)ccc2F)cc1 (stereo not given)	0.1	2.2	3	2.6	-7	-11	0.1	2
O=C(O)c1ccc2ccc3ccccc3c2c1	0.5	-3.0	-1	5.1	-1	-11	0.5	-1
CCCCOc1ccc(-c2nnn(CC(=O)NCCc3c[nH]c4ccccc34)n2)cc1	-3.4	0.7	6	-0.1	-17	46	0.6	-6
CN(CC(=O)NC(=O)NC1CCCCC1)CC(=O)Nc1ccc(Cl)cc1	·	3.8	4	1.0	4	·	-0.4	·
Cc1cccc(-n2nnc(C(=O)NCc3ccccc3)c2N)c1	?	-3.8	-3	2.8	-2	19	0.0	15
Cc1ccc(CCNS(=O)(=O)c2ccc3c(c2)NC(=O)C(C)C(=O)N3)cc1 (stereo not given)	-3.0	-5.9	-2	5.5	9	-3	·	-9
Cc1nc(N=C(N)N)nc2ccccc12	3.9	-1.6	·	4.2	3	-2	0.6	-10
CCOC(=O)c1cc(C)sc1NC(=O)CSC1=NCCS1	·	6.5	-5	1.5	9	-7	1.1	·
O=C(COc1ccccc1Cl)Nc1cc(Cl)ccc1Oc1ccccc1	0.4	-4.1	6	3.7	-2	20	0.5	-3
CCc1ccccc1NC(=O)c1cccc(N2C(=O)C3C4CCC(C4)C3C2=O)c1 (stereo not given)	-0.5	-1.9	-13	-0.4	1	-6	0.4	-5
S=C(NCc1ccccc1Cl)NC1CCCC1	2.1	-0.4	3	-1.3	-4	-3	0.7	-7
O=C(/C(=C/c1ccc(Cl)cc1)c1nc2ccccc2[nH]1)c1ccccc1	2.9	0.5	104*	-0.2	40	68*	0.6	0
CCCCn1c(SCC(=O)N2CCCC2=O)nc2cc(S(N)(=O)=O)ccc21	·	i	-2	-1.2	-7	·	-0.4	·
Nc1ncnc(Nc2cccc(F)c2)n1	1.2	0.3	-5	-2.0	-2	-22	1.0	-4
Cc1cc(C(=O)Cn2nc(C(=O)O)c3ccccc3c2=O)c(C)n1-c1ccc(F)cc1	-0.5	-1.0	-4	1.8	-7	11	-1.1	-11
O=C(O)c1ccc(COc2ccc3ccccc3c2/C=C2/NC(=O)N(c3ccccc3)C2=O)cc1	2.6	4.0	-4	3.9	0	15	1.2	-3
O=C(Oc1ccccc1-c1csnn1)c1cccs1	3.7	-1.7	-3	-0.1	0	-12	0.4	13
COC(=O)C(NC(=O)c1ccco1)(Nc1nc(C2CC2)cs1)C(F)(F)F (stereo not given)	2.8	-2.5	-1	0.4	-99	-8	0.1	5
Cc1ccc(NS(=O)(=O)c2ccc3c(c2)NC(=O)CCS3)c(Br)c1	0.7	-1.3	-7	5.8	5	12	0.2	28
CN(C)CCCN1C(=O)C(=O)/C(=C(/O)c2ccncc2)C1c1cccc(Br)c1 (stereo not given)	?	0.0	1	4.8	-3	-4	1.5	-1
COc1ccc(CC(=O)OCC(=O)Nc2ccc3[nH]c(=O)[nH]c3c2)cc1	-1.2	0.3	·	1.2	-3	-4	0.4	6
CCc1ccccc1NC(=O)c1ccc2nc(N3CCOCC3)sc2c1	-0.5	-4.7	1	3.0	0	-7	-0.4	5
CCOC(=O)C1(CC)NC(c2ccco2)C2C(=O)N(CC)C(=O)C21 (stereo not given)	-5.5	5.6	3	2.0	-4	-15	0.0	-9
CCOC(=O)c1nnn(-c2nonc2N)c1CN(CC)c1ccccc1	4.5	-5.1	-1	0.7	12	20	0.8	-5
S=C(NCc1cccnc1)c1ccccc1	-0.9	-1.9	-4	1.5	0	-12	0.0	2
CC1CN(S(=O)(=O)c2cccc(C(=O)NCc3ccccn3)c2)CC(C)O1 (stereo not given)	·	3.0	1	-0.5	-2	·	-2.0	·
O=C(Cn1cccc1C(=O)c1ccccc1)NCc1cccs1	3.2	0.8	-3	14	5	-1	0.4	-8
CCOc1ccccc1NC(=O)CSc1nnc(Cc2cccn2C)n1-c1ccc(F)cc1	3.9	1.3	3	4.8	0	2	0.2	24
C/C(=N\NC(=O)Cc1c(Cl)cccc1Cl)c1cccnc1	-3.5	4.2	-1	·	-9	-6	1.6	-13
COc1ccc(NC(=O)c2oc3ccccc3c2C)c(OC)c1	-4.2	-4.2	0	-116	2	17	0.7	18
OCC(Cc1ccc2c(c1)OCO2)C(CO)Cc1ccc2c(c1)OCO2 (stereo not given)	0.4	-0.4	·	0.4	-4	-13	1.5	-13
N#Cc1cnc(Oc2ccc(Cl)cc2)nc1N	-0.4	-4.0	2	-1.5	-2	-12	-0.3	-7
Cc1ccc(S(=O)(=O)NCC(=O)NNC(=O)c2ccc(Br)cc2)cc1C	·	-7.6	-7	-1.3	-10	·	0.3	·
O=S(=O)(NCc1ccc(F)cc1)c1ccc(Br)cc1Br	·	0.3	0	0.2	-6	·	0.6	·
Cc1nc2ccc(S(=O)(=O)N(C)CC(=O)Nc3ccccc3F)cc2s1	0.8	-3.2	-4	4.8	3	3	0.2	-13
COc1ccc(N2CCOCC2)c(NC(=O)c2ccc(Br)o2)c1	?	-0.7	0	0.8	-3	20	-0.9	-1
CCOc1ccc(CCNC(=O)C2CC(=O)N(CCc3ccc(OC)c(OC)c3)C2)cc1OCC (stereo not given)	-1.1	2.3	2	-0.7	0	-2	-0.6	-7
CCc1cc(C(=O)O)c(NC(=O)/C=C/c2ccc(OC)c(OC)c2)s1	-0.6	1.1	-3	24*	10	0	1.3	50
COc1ccc2c(c1)OC[C@H]1[C@H]2N2C(=O)c3cc(Br)ccc3NC(=O)[C@@]2(C)[C@H]1c1ccccc1	·	-1.7	5	·	3	·	1.4	·
O=C(Nc1cccc(Cl)c1)Nc1nccs1	3.5	-7.0	-5	3.3	-6	-16	-2.2	80*
CSc1ccc(CCCCCCOC(=O)C(C)(C)C)cc1	·	2.0	0	2.6	-1	·	-0.9	·
Cc1cc(C)c2c(c1)cc(C)c1nnc(SCC(=O)Nc3ccc(S(=O)(=O)N4CCCCC4)cc3)n12	2.9	1.9	-2	1.6	-14	-5	-2.9	10
COc1ccc(CC(C)Nc2cccc(SC)c2)cc1 (stereo not given)	7.3	-5.4	-7	2.4	4	9	0.5	13
O=C(COc1coc(CN2CCN(c3ccccc3)CC2)cc1=O)NC1CCCCC1	1.2	-3.6	·	0.8	-1	-6	0.1	23
CCOc1cc(/C=N/NC(=O)CSc2nncn2C)ccc1OC(=O)c1ccc(Cl)cc1	-0.5	-20	-3	·	-4	8	-0.3	4
CC(C)c1nccn1S(=O)(=O)c1cccc([N+](=O)[O-])c1	·	·	5	-4.0	-32	·	0.4	·
COC(=O)c1sccc1NC(=O)CC1C(=O)NCCN1C(=O)c1c(F)cccc1Cl (stereo not given)	-0.1	-3.3	-1	1.9	-4	·	-0.3	-18
O=C(NCc1ccc(F)cc1)C1CCN(S(=O)(=O)c2ccc3c(c2)OCCCO3)CC1	0.0	-1.5	-16	3.3	-1	-19	-0.9	-5
CCC(C)c1ccccc1N1CC(C(=O)Nc2ccc(S(=O)(=O)N3CCOCC3)cc2)CC1=O (stereo not given)	1.2	-8.2	0	-1.8	-3	19	-0.1	5
CNCCc1ccccn1	0.8	-27	·	1.4	0	20	·	·
C=CCN1CC(c2nc3ccccc3n2Cc2ccccc2)CC1=O (stereo not given)	5.0	5.1	-8	1.6	1	4	0.1	0
Brc1cccc(CN2CCCCCC2)c1	1.1	3.5	-4	4.3	0	11	0.4	29

Shown with bars between the fields: part of the list above
smiles | RanGTP-Imp inh | LANA-H2A inh | Beta apoptosis | UCH37 DUB inh | B2AR ag | T cruzi inh | A1 inh | Calb FLC
Cc1cc(C)c2c(c1)cc(C)c1nnc(SCC(=O)Nc3ccc(S(=O)(=O)N4CCCCC4)cc3)n12 | 2.9 | 1.9 | -2 | 1.6 | -14 | -5 | -2.9 | 10
COc1ccc(CC(C)Nc2cccc(SC)c2)cc1 (stereo not given) | 7.3 | -5.4 | -7 | 2.4 | 4 | 9 | 0.5 | 13
O=C(COc1coc(CN2CCN(c3ccccc3)CC2)cc1=O)NC1CCCCC1 | 1.2 | -3.6 | · | 0.8 | -1 | -6 | 0.1 | 23
CCOc1cc(/C=N/NC(=O)CSc2nncn2C)ccc1OC(=O)c1ccc(Cl)cc1 | -0.5 | -20 | -3 | · | -4 | 8 | -0.3 | 4
CC(C)c1nccn1S(=O)(=O)c1cccc([N+](=O)[O-])c1 | · | · | 5 | -4.0 | -32 | · | 0.4 | ·
COC(=O)c1sccc1NC(=O)CC1C(=O)NCCN1C(=O)c1c(F)cccc1Cl (stereo not given) | -0.1 | -3.3 | -1 | 1.9 | -4 | · | -0.3 | -18

Next part.
SMILES	RanGTP-Imp inh	LANA-H2A inh	Beta apoptosis	UCH37 DUB inh	B2AR ag	T cruzi inh	A1 inh	Calb FLC
Cc1ccccc1NC(=S)N1CCCCCC1	·	-1.0	-3	0.2	0	·	0.9	-3
CCCCCCn1c(CN2CCN(CCO)CC2)nc2c1c(=O)n(C)c(=O)n2C	3.8	0.5	-2	1.3	-14	-2	-0.4	2
O=C(Cn1nc(C(F)(F)F)c2c1CCCC2)NC1CCCC1	4.5	1.6	-10	1.9	-4	-2	-0.1	-3
COC(=O)c1cccc(NC(=O)CN2CCC(NC(=O)c3cc(OC)c(OC)c(OC)c3)CC2)c1	-1.7	-1.1	·	4.9	13	6	0.3	?
CCOC(=O)c1ccc(NC(=O)c2cn(CCC#N)nc2-c2ccc3c(c2)OCCO3)cc1	-2.3	4.9	-9	3.9	-21	3	1.5	-3
Cc1ccc2occ(/C=N/NC(=O)[C@@H](N)Cc3ccccc3)c(=O)c2c1	-2.8	1.8	·	·	5	-2	0.0	-4
Cc1ccc(CS(=O)(=O)CCC(=O)NCCCN2CCCC2)cc1	3.8	2.6	-7	3.5	3	1	0.6	6
COc1cccc(NC(=O)c2ccc(S(=O)(=O)NCc3cccnc3)cc2)c1	2.8	-1.6	5	3.3	-4	1	0.1	2
